Screening data as filed in PubChem BioAssay.
Rce1 inhib – blocks yeast Ras-converting enzyme | 0.27% of 290,000 active | Q03530 | yeast membranes, quenched prenylated peptide cleavage fluorescence | calls only;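 active = fall in fluorescence gain of 50% or more versus controls, with final raw signal at or below 3038400; inconclusive = same 50% fall but final raw signal above 3038400; inactive = fall in fluorescence gain under 50%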;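 note: plate controls were neutral control wells for no effect and wells lacking membranes for full effect; tested at 10 µM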
MT1-MMP act inh – blocks activation of human MT1-MMP | AID 651647 | P50281 | 0.061% of 360,000 active | HT1080 RFP-PRO-GFP cells, GFP/RFP ratio fluorescence, overnight; percent of plate control window, DMSO zero | GFP/RFP ratio change, % at 20 µM;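 active = GFP/RFP ratio change of at least 30% with cell ATP level not reduced by more than half and red fluorescence within 50% of control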; note: strong numbers were not always called active
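system = RFP-PRO-GFP reporter HT1080 cells | dosing = 20 µM single dose, 1% DMSO | timing = overnight cell settling, then overnight compound exposure, 37 °C, 5% CO2 | read-out basis = GFP/RFP fluorescence ratio | controls = DMSO and RFP-L50D-GFP cell wells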
HIV Env fusion – inhibitors of HIV Env-mediated cell fusion | HeLa-JRFL Env/CEM21 cell fusion, luciferase | inhibition, % at 12.3 µM | 1.1% of 360,000 active;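 active = mean replicate inhibition score of at least 50 and every replicate individually at or above 50; inconclusive = only one of the two criteria met; inactive = mean below 50 and not all replicates reaching 50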;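 note: 0% = plate neutral controls and 100% = maraviroc near 300 nM; one replicate is shown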
eIF4H FP inh – inhibitors of RNA binding by human eIF4H | eIF4H fluorescence polarization binding assay | 0.94% of 290,000 active | inhibition, % at 35 µM;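 active = 50% or more with normal probe brightness, or confirmed in later tests; inconclusive = above 50% with abnormal brightness, or retests that disagree; inactive = below 50% or failed in later tests; about a fifth of its hits are not listed in these tables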;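 note: calls also rest on retests at 20 µM and on dose response follow-up; 0% = protein and probe with vehicle and 100% = probe without protein; strong numbers were not always called active; many hits fall short of the cut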
PABP FP inh – PABP-poly(A) binding inhibition | PABP-poly(A) RNA binding, fluorescence polarization | inhibition, % at 35 µM | 1% of 290,000 active | AID 2014;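 active = 50% or more with normal probe brightness, or confirmed in later tests; inconclusive = above 50% with abnormal brightness, or retests that disagree; inactive = below 50% or failed in later tests; about a fifth of its hits are not listed in these tables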;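 note: calls also rest on retests at 20 µM and on dose response follow-up; controls were probe without protein and protein plus probe with vehicle; some compounds called inactive have numbers as strong as hits; many hits fall short of the cut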
Target sequence (P11940 whole entry, looked up): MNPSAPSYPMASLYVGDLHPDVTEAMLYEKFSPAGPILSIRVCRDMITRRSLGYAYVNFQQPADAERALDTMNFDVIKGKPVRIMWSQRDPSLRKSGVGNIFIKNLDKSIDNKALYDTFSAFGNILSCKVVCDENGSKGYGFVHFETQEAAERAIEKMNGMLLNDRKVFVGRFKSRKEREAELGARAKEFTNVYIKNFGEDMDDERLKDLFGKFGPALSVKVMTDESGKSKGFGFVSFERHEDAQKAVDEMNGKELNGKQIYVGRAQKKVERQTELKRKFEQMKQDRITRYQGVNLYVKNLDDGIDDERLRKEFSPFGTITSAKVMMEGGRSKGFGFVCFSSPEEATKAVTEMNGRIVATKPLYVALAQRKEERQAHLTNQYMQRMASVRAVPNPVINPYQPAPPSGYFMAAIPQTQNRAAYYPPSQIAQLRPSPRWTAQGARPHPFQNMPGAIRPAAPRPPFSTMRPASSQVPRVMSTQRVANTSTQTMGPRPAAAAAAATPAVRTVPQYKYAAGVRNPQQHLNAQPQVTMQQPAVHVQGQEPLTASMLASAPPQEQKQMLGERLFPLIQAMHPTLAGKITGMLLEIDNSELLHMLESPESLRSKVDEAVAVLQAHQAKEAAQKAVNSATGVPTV
Yeast UUG start – alters start codon recognition fidelity in yeast. S. cerevisiae UUG-firefly luciferase reporter, luminescence/redox ratio. activity score, % at 18.7 µM. 0.13% of 350,000 active. AID 602363;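 active = replicate mean at a twofold rise or more, about +100% in these data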;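 note: firefly luciferase made from a UUG start codon reports start codon fidelity; reporter light over untreated wells divided by growth signal over untreated wells; some hits fall short of that in this replicate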
CSC inhib – blocks cancer stem cells | cancer stem cell-like cells viability, luminescence | 1.1% of 300,000 active | AID 2717 | inhibition, % at 7.5 µM;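 active = mean at 75% or more and at least half the replicates too; inconclusive = mean and replicates disagree; tested in HMLE shEcad cells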;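 note: 0% = median of negative and 100% = median of positive control wells; the first replicate is given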
MT1-MMP act inh RFP – also measured in MT1-MMP act inh; calls as there; RFP signal change, %; measured here: RFP expression control read;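 0 = vehicle wells; hits needed this value within 50% of zero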
Numbers without * were called inactive; i = inactive; ? = inconclusive; / = not tested or not shown; & = joins results of further samples.

SMILES	Rce1 inhib	MT1-MMP act inh	MT1-MMP act inh RFP	HIV Env fusion	eIF4H FP inh	PABP FP inh	Yeast UUG start	CSC inhib
CC(C)CNc1nc(SCC(=O)Nc2ccccc2)nc(N2CCOCC2)n1	i	-5	-3	6	7	6	/	-11
Cn1cc(Cc2ccc(C(=O)N3CCOCC3)cn2)c2ccccc21	/	2	4	-14	/	/	-16	/
O=c1c(-c2nc3ccccc3s2)cccn1Cc1ccc(Cl)cc1	i	5	-7	-18	-11	-5	-9	1
OC(COC(c1ccc(Cl)cc1)c1ccc(Cl)cc1)CN1CCCC1 (stereo not drawn)	i	-4	2	4	-6	-2	-15	20
CN(Cc1ccc(F)cc1)C(=O)CNC(=O)c1ccc2c(c1)OCO2	i	-1	3	-20	/	/	-1	0
CSc1nc2ccccc2n1CC(=O)Nc1c(C)cccc1C	i	2	1	/	0	-20	-9	-2
COc1ccc(CCNC(=O)c2ccc3ccccc3n2)cc1	i	-4	1	-20	9	17	-9	2
O=C(COc1cccc(Cl)c1)NCC(c1cccs1)N1CCOCC1 (stereo not drawn)	/	1	-4	/	/	/	4	1
Cc1nc(CCNS(=O)(=O)c2cccnc2)cs1	i	0	3	-11	12	0	-1	-6
COc1cc(C(CCN2CCOCC2)c2c(OC)cc(OC)c3c2OC(=O)CC3c2ccc(N(C)C)cc2)cc(OC)c1OC (stereo not drawn)	i	1	0	-15	-2	1	-3	7
Cc1ccc(-c2nc3nc4ccccc4nc3n2Cc2ccco2)cc1	i	0	-1	-97	2	3	-37	5
COc1nc(/C(N)=N/O)nc(N2CCCCC2)n1	i	4	3	5	-6	5	-22	-7
CC(C)Oc1ccc(C(=O)NCC(=O)N2CCN(S(=O)(=O)/C=C/c3ccccc3)CC2)cc1	/	6	-7	-3	/	/	-23	/
CCOC(=O)C1C(=O)CC(C)(O)C(C(=O)OCC)C1c1ccccc1 (stereo not drawn)	/	-4	0	-67	-7	5	3	-8
COc1ccc(S(=O)(=O)NCCCN2CCOCC2)c2ccccc12	i	-1	3	-31	-3	-6	16	3
Cc1ccc(NC(=O)Cc2n[nH]c(=O)c3ccccc23)cc1S(=O)(=O)N1CCCCCC1	/	-7	-26	-7	/	/	2	/
Cn1cccc1-c1cc(C(=O)N2CCc3c([nH]c4ccccc34)C2c2ccccn2)[nH]n1 (stereo not drawn)	i	3	-1	-5	3	-13	/	1
O=C(CSc1nc(O)cc(=O)n1-c1ccccc1)Nc1ccccn1	i	0	2	-11	-3	2	/	-7
CC(=O)c1cccc(-c2ccc(CN3C(CC(C)C)C(=O)N(Cc4cn(CC5CCCCC5)nn4)CCS3(=O)=O)cc2)c1 (stereo not drawn)	/	-4	-8	-78	/	/	-4	/
CCCCCCc1ccc(-c2ncc(N)cn2)cc1	i	-19	-10	-30	3	-1	-12	-7
COc1cc(/C=C/C(=O)OCC(=O)Nc2ccc(NC(C)=O)cc2)cc(S(=O)(=O)N2CCc3ccccc32)c1OC	i	-2	-5	-5	-6	-6	-19	-8
[O-][n+]1onc2c3cc(-c4ccccc4)nnc3ccc21	i	3	-3	/	4	3	-15	11
Cc1cc(NC(=O)c2ccc(F)cc2F)n(-c2nc3ccccc3[nH]2)n1	i	2	-1	/	3	-1	-14	-1
O=C(CSc1ccc2nnc(-c3ccc(Cl)cc3)n2n1)N1CCCc2ccccc21	i	-11	-8	10	-4	-10	/	0
CN(c1ccccc1)S(=O)(=O)c1ccc(Cl)c(C(=O)OCC(=O)c2c(N)n(C)c(=O)n(C)c2=O)c1	/	4	0	21	/	/	1	/
O=C(O)/C=C\C(=O)Nc1ccc(N2CCN(c3ccc(F)cc3)CC2)cc1	i	6	4	17	25	20	1	-15
COc1ccc(/C=C2\Oc3cc(OCC(=O)N4CCC[C@H]4C(=O)O)ccc3C2=O)c(OC)c1	i	0	4	/	28	-2	17	4
CC(=O)NCc1nc2ccccc2n1Cc1ccccc1F	i	-7	-5	9	-1	-6	-21	-10
COc1cccc(-c2nc(CS(=O)(=O)CC(=O)NCc3ccccc3OC)c(C)o2)c1	i	1	2	-10	-4	-4	-21	-1
O=C1c2oc3ccccc3c(=O)c2C(c2ccccn2)N1Cc1ccccc1 (stereo not drawn)	i	-5	-2	/	2	7	-8	-3
c1ccc(OCc2nnc3n2N=C(c2ccccc2)CS3)cc1	i	0	1	3	-10	-1	/	-18
O=C(COC(=O)[C@H](Cc1ccccc1)NC(=O)c1cccs1)NC1CC1	i	5	4	8	-1	-1	/	-1
Cc1ccc(Cn2nnc3c(=O)n(CC(=O)NCc4ccco4)cnc32)cc1	i	-4	0	/	3	-14	9	1
CC(C)CNC(=O)C1c2ccccc2Oc2ccccc21	i	-1	4	-161	-1	3	/	-13
O=C(COC(=O)c1ccccc1SCC(=O)N1CCCC1)Nc1ccccc1C(F)(F)F	i	0	5	9	-9	5	-10	/
CC(=O)Cc1cc(O)c2ccccc2c1OC(=O)c1ccccc1	/	-103	0	2	-9	0	/	6
Cc1cc(C)c(NC(=O)C(C)N2CCCCCC2)c(C)c1 (stereo not drawn)	i	-2	-2	10	-5	-1	8	-10
CC(Sc1nnc(COc2ccccc2)n1Cc1ccccc1)C(=O)O (stereo not drawn)	i	-2	1	3	-3	11	-2	-4
O=C(Nc1nnc(-c2ccccc2Cl)o1)c1nc2ccccc2s1	i	4	7	-24	18	10	-29	24
CCOC(=O)c1cc(C#N)c(SC)nc1-c1ccccc1	i	-1	-5	/	-10	9	-7	/
COc1ccc(Br)cc1/C=N/NC(=O)CN1CCN(Cc2ccccc2)CC1	i	2	0	9	1	-15	-4	-2
Cc1ccc(/C=N\NC(=O)c2ccc3c(c2)OCO3)o1	i	0	3	-9	4	4	-23	-4
COc1cccc(CNC(=O)CCCn2ccc3cc(S(=O)(=O)N4CCCC4)ccc32)c1	i	3	-5	8	-7	0	7	-8
CCOC(=O)c1ccc(Cn2c(-c3ccccc3)nnc2-c2ccccc2)o1	i	-5	-4	/	-4	-2	-5	-3
COc1ccc(NC(C)=O)cc1NC(=O)CN1CCN(C(=O)c2ccco2)CC1	i	-3	1	-66	-7	0	-13	-2
CCOC(=O)c1cc(C)[nH]c1C	i	2	-1	3	-6	-10	/	15
CC(C)CC(=O)O/N=C1\C(=O)N(c2ccccc2)c2ccccc21	i	0	-3	/	-4	-3	-20	2
CCCS(=O)(=O)NC(=O)C1(C)CCN(C(=O)Cc2ccc(OC)c(OC)c2)C1 (stereo not drawn)	/	20	-1	3	/	/	11	/
CC(=O)c1ccc(NC(=O)c2cn(-c3ccccc3)nc2-c2ccncc2)cc1	i	3	-5	/	6	3	-16	8
O=C(COC(=O)c1cc[n+]([O-])cc1)NCc1ccccc1Cl	i	1	6	7	-2	2	/	/
COc1ccc(/C=N/NC(=O)c2[nH]c3ccc(Cl)cc3c2-c2ccccc2)c(C(=O)O)c1OC	i	1	3	-22	-8	9	-6	67
O=C(c1ccccc1F)n1c2c(c3ccccc31)CCCC2	i	-3	-4	2	-5	2	-17	51
CN(CCOc1ccccc1)CC(=O)Nc1cc([N+](=O)[O-])ccc1Cl	i	1	0	-6	-9	-12	/	/
CN(C)c1nc(/C=C(\C#N)C(N)=O)c(Cl)n1-c1ccc(F)cc1	i	-3	-1	6	11	-2	-7	-13
O=C(O)CNS(=O)(=O)c1ccc(Br)s1	i	7	6	/	1	11	1	-12
Cc1ccc(/C=C/C2=Cc3c(sc(NC(=O)CSc4n[nH]c(N)n4)c3C#N)C(C)(C)C2)o1	i	/	/	/	?	?	/	-3
C[C@@H]1CCCCO[C@H](CN(C)C(=O)Cc2ccccc2)[C@@H](C)CN([C@H](C)CO)C(=O)c2cc(NC(=O)Nc3ccccc3)ccc2O1	/	2	-2	-137	/	/	2&-12	/
CSc1ncccc1C(=O)OCC(=O)NC1CCS(=O)(=O)C1 (stereo not drawn)	i	4	3	/	-15	0	-13	-12
Cc1ccnc(Nc2nc(-c3ccc(F)cc3)cs2)c1	/	5	-16	-52	2	5	-33	17
COc1ccc(C2=NN(C(C)=O)C(c3ccccc3)C2)cc1 (stereo not drawn)	i	0	-1	-27	-13	1	-4	-8

Some of the entries so far, as labelled records:
> CN(CCOc1ccccc1)CC(=O)Nc1cc([N+](=O)[O-])ccc1Cl
  Rce1 inhib = i
  MT1-MMP act inh = 1
  MT1-MMP act inh RFP = 0
  HIV Env fusion = -6
  eIF4H FP inh = -9
  PABP FP inh = -12
  Yeast UUG start = /
  CSC inhib = /
> COc1ccc(C2=NN(C(C)=O)C(c3ccccc3)C2)cc1 (stereo not drawn)
  Rce1 inhib = i
  MT1-MMP act inh = 0
  MT1-MMP act inh RFP = -1
  HIV Env fusion = -27
  eIF4H FP inh = -13
  PABP FP inh = 1
  Yeast UUG start = -4
  CSC inhib = -8

(cont.)
SMILES	Rce1 inhib	MT1-MMP act inh	MT1-MMP act inh RFP	HIV Env fusion	eIF4H FP inh	PABP FP inh	Yeast UUG start	CSC inhib
CC(=O)c1cccc(S(=O)(=O)Nc2c(C)nn(C)c2C)c1	/	2	-2	/	/	/	-7	-2
CN(C)c1nc(OCCNC(=O)Nc2ccccc2)nc(N(C)C)n1	i	1	1	/	-1	7	-13	-10
Cc1cc(C)cc(NC(=O)Nc2ccc(Cl)cn2)c1	i	-3	-7	4	-1	1	-7	-2
CCOC(=O)c1sc(-n2[nH]c(C)cc2=O)nc1C	i	8	0	/	8	8	-3	-19
COc1ccc(C)cc1NC(=S)N1CC(C)OC(C)C1 (stereo not drawn)	i	0	6	-12	-3	5	-17	0
COc1ccc(N2C(=O)C(CC(=O)Nc3ccccc3)N(Cc3cccs3)C2=O)cc1 (stereo not drawn)	i	2	4	-78	-10	-1	1	3
COc1ccc(C2=NS(=O)(=O)N(C)C(C(=O)N3CCC(C(N)=O)CC3)=C2)cc1	i	-2	3	-19	1	2	11	-10
COc1cc(OC)cc(C(=O)N2CCN(c3ccccc3F)CC2)c1	i	2	-1	/	-3	-2	-1	12
COc1cc(C(=S)N2CCOCC2)cc(OC)c1OS(=O)(=O)c1ccc(NC(C)=O)cc1	i	-1	3	-57	-7	-4	-20	-3
COc1ccccc1NC(=O)CSc1nnc(CC(=O)Nc2ccccc2F)n1C	i	1	1	1	-5	21	-11	/
Cc1cc([N+](=O)[O-])cc(C)c1OCC(=O)N/N=C/c1ccc(OC(=O)c2ccccc2Br)cc1	i	-1	2	-28	-8	-2	-15	7
O=C1CCCCCCC1Sc1ccccc1[N+](=O)[O-] (stereo not drawn)	i	2	5	/	-6	-5	-1	-15
CCOC(=O)Nc1ccc(C)cc1NC(=O)OCC	i	-3	4	-10	-5	-6	-19	-2
CN(C)c1ccc(/C=N/N=C(N)N)cc1[N+](=O)[O-]	i	1	-10	7	-10	0	/	-3
COc1ccccc1C1(CC(=O)O)CCOC(C)(C)C1 (stereo not drawn)	i	6	7	/	8	-2	-16	-11
CC(C)n1cnc2cc(NCc3ccco3)ccc21	i	23	6	/	-6	11	-5	-1
CCOC(=O)C1CCCN(S(=O)(=O)c2ccc(S(=O)(=O)N(CC)CC)cc2)C1 (stereo not drawn)	i	-3	-25	42	-8	4	/	/
COc1ccc(N(CC(=O)N/N=C/c2cc(Br)c(C)o2)S(=O)(=O)c2ccc(NC(C)=O)cc2)cc1	i	-2	-3	-16	-5	-4	/	-10
COC(=O)[C@@]12CCCCN1[C@H](c1ccc(-c3ccc(C(C)=O)cc3)c(OC)c1)[C@@H]1C(=O)N(C)C(=O)[C@@H]12	i	-2	-2	-2	/	/	1	4
CCS(=O)(=O)Nc1ccc(-c2nc3cccnc3s2)cc1	i	-3	-3	-75	-7	-16	-55	-10
Cc1ccc(C(=O)O/N=C\c2ccc(N3CCOCC3)c([N+](=O)[O-])c2)cc1	i	1	0	/	-1	1	/	0

Not all compounds are listed; count on the stated rates, not on these rows.
